GPR55 beta-arrestin – GPR55 agonists via beta-arrestin recruitment, primary screen, imaging, U2OS cells, beta-arrestin-GFP redistribution (AID 1961); U2OS GPR55 beta-arrestin-GFP redistribution imaging; higher % means a stronger effect; activation, % at 10 µM, or EC50 in µM where a hit was titrated; 0.048% of 290,000 active;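 active means activation above 40% with more than 50 cells counted in the well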;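 further: U2OS osteosarcoma cells stably expressing GPR55 and beta-arrestin-GFP; plate controls were DMSO negative control for no effect and LPI positive control for full effect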
GPR35 arrestin U2OS – inhibition of zaprinast-stimulated GPR35 beta-arrestin translocation – imaging, U2OS, beta-arrestin-GFP, zaprinast agonist, primary screen (AID 2058); 0.052% of 290,000 active; inhibition, % at 10 µM; hits with a dose series show IC50 in µM; U2OS GPR35 beta-arrestin-GFP translocation imaging, zaprinast antagonism; higher % means a stronger effect;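 active means inhibition of at least 50% with at least 30 cells and total cytoplasm GFP at most 10,000,000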
SIAH1 antagonists – Siah-1 peptide-binding antagonists, primary screen, biochemical, fluorescence polarization, rhodamine-plectin, uHTS (AID 1817); displacement, % at 20 µM; hits with a dose series show IC50 in µM; Siah-1 / rhodamine-plectin peptide fluorescence polarization; higher % means a stronger effect; 0.02% of 290,000 active;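 active means displacement of at least 50% at 20 µM, with a fluorescence ratio check between 0.3 and a set limit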;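 further: plate controls were Siah plus tracer with DMSO for no effect and tracer alone without Siah for full effect; strong numbers were not always called active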
GPR55 LPI antagonism – inhibition of LPI-stimulated GPR55 beta-arrestin translocation – imaging, U2OS, beta-arrestin-GFP, LPI agonist, primary screen (AID 2013) | inhibition, % at 10 µM; hits with a dose series show IC50 in µM | U2OS GPR55 beta-arrestin-GFP translocation imaging, LPI antagonism; higher % means a stronger effect | 0.13% of 290,000 active;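 active means spots per cell inhibited over 60%, with over 100 cells counted and total cytoplasm intensity under 500,000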;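 further: U2OS cells stably carrying GPR55 and arrestin-GFP stimulated by 5 µM LPI near EC80; imaged beta-arrestin-GFP aggregate spots per cell after agonist stimulation; plate controls were LPI-stimulated DMSO wells for no effect and DMSO wells without LPI for full effect; some results filed as inactive read as strong as hits; confirmed hits need IC50 under 10 µM and bright autofluorescent wells are also inconclusive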
HIV fusion peptide – cell-free HIV fusion peptide-binding blockers – biochemical, uHTS, fluorescence dequenching, primary screen (AID 1986). cell-free peptide binding, fluorescence dequenching, 30 min; higher % means a stronger effect. 0.3% of 290,000 active. inhibition, % at 20 µM, or IC50 in µM where a hit was titrated; in the data active means inhibition mostly above about 52%, no sharp cut-off; inactive means mostly below about 76%; further: some results filed as inactive read as strong as hits
AID2073 – inhibitors of Mint1-CaV2.2 protein interaction, biochemical, HTRF (AID 2073) | HTRF protein-protein interaction, Mint1-CaV2.2; higher % means a stronger effect | one-dose inhibition, % at 20 µM; IC50 in µM for titrated hits | 0.19% of 290,000 active; in the data active means inhibition mostly above about 51%, no sharp cut-off; further: some results filed as inactive read as strong as hits
KOR beta-arrestin – kappa opioid receptor activators – cell-based, luminescence, uHTS, primary screen (AID 1777); KOR beta-arrestin recruitment, luminescence; higher % means a stronger effect; activation, % at 10 µM, or EC50 in µM where a hit was titrated; 0.02% of 280,000 active; in the data active means activation above about 50%, passing the limit was not always enough; further: a part of the inactive calls stands beside numbers as strong as those of hits
* marks the source's active call; other numbers are inactive results; & = joins results of further samples. Only part of the results is shown; rates above refer to the full screens.

SMILES	GPR55 beta-arrestin	GPR35 arrestin U2OS	SIAH1 antagonists	GPR55 LPI antagonism	HIV fusion peptide	AID2073	KOR beta-arrestin
O=S(=O)(Nc1ccc(Cc2ccncc2)cc1)c1ccc(Cl)c(Cl)c1	0.2%	5%	-1%	-1%	2.1%	-7%	2.9%
CN1CCN(CC(O)c2ccccc2)CC1 (configuration not stated)	-0.1%	4%	-3%	2%	-3.2%	4%	-0.4%
CC(=O)N1N=C(c2ccc(C)o2)CC1c1ccc(Br)cc1 (configuration not stated)	-0.1%	7%	2%	-6%	-1.5%	1%	-2.3%
Cc1ccc(C(=O)Nc2ccccc2-c2ccccc2)cc1S(=O)(=O)Nc1cccc(C)c1C	-0.1%	1%	-2%	5%	-0.3%	4%	-1.8%
C/C(=N/OC(=O)c1ccc(F)cc1)c1ccc(C)cc1	0.3%	-1%	2%	8%	0.7%	5%	4.2%
O=C(NCC1CCCO1)C1CC(=O)N(C2CCCCCC2)C1 (configuration not stated)	0.2%	0%	3%	3%	1.7%	-14%	2.6%
O=S(=O)(NCCSCc1c(Cl)cccc1Cl)c1ccc2c(c1)OCCO2	0.0%	-2%	-2%	19%	-1.0%	-6%	-3.2%
COc1cccc(NC(=O)N(C2CCCCC2)C(C)c2cccs2)c1 (configuration not stated)	-0.1%	-5%	-2%	17%	-4.1%	-2%	3.5%
FC(F)(F)c1cc(Oc2ccc(Cl)cc2)nc(-c2ccccn2)n1	0.6%	3%	-2%	4%	-0.4%	3%	-3.9%
CCc1ccc(NC(=O)CC2C(=O)Nc3c2c(=O)n(C)c(=O)n3C)cc1 (configuration not stated)	-0.2%	-7%	1%	3%	-1.1%	-1%	2.6%
COC(=O)c1ccc(NC(=O)COc2ccc(C3C(C#N)=C(N)Oc4c3ccc3ccccc43)cc2OC)cc1 (configuration not stated)	0.0%	8%	6%	2%	6.4%	23%	-1.0%
Cc1ccc(/C=C/C(=O)Nc2cc(C)on2)cc1	0.0%	-6%	-2%	-2%	-0.1%	3%	5.8%
CC1CCC(=C(C#N)C(=O)Nc2cccc(Cl)c2)CC1 (configuration not stated)	-0.1%	12%	-5%	10%	0.0%	-1%	6.4%
CCOCC(=O)Nc1cc(C(F)(F)F)ccc1Oc1cccc(Br)c1	-0.1%	7%	-2%	26%	1.3%	-8%	0.6%
Cc1cc(O)c(/C=N/Nc2ccc(Cl)cc2)c(=O)o1	-0.1%	0%	2%	20%	3.4%	-12%	-1.1%
N/C(=N\OC(=O)c1cccc(Br)c1)c1ccc(Br)cc1	-0.1%	3%	-1%	8%	-1.8%	16%	-1.1%
CC(=O)Nc1ccc(S(=O)(=O)NCC2CCC(C(=O)NCCC(C)C)CC2)cc1 (configuration not stated)	-0.1%	18%	1%	12%	-1.3%	3%	1.5%
Cc1ccc(NC(=O)Cn2nc(C)c3ccccc3c2=O)cc1F	-0.2%	22%	1%	10%	0.6%	-3%	-2.1%
O=C(Cc1cc(=O)[nH][nH]1)N/N=C/C(Cl)=C/c1ccccc1	-0.1%&0.0%	-6%&19%	4%&-2%	10%&-2%	19%&0.4%	-4%&-7%	1.8%&-4.5%
Cc1ccc(C2C(C(=O)c3ccco3)=C(O)C(=O)N2c2nnc(C)s2)cc1 (configuration not stated)	-0.1%	5%	0%	9%	22%	7%	4.2%
O=C(Cc1ccccc1)NC(NCCc1ccccc1)C(Cl)(Cl)Cl (configuration not stated)	-0.1%	-1%	1%	12%	2.1%	21%	3.5%
CC1(C)N=C(SCC(=O)Nc2ccccc2)C(c2ccc(Cl)cc2)=N1	-0.1%	-2%	-1%	-3%	-1.1%	-14%	-1.2%
N#CCCn1ncc2ccccc21	-2.3%	-5%	-4%	4%	-1.5%	-3%	5.7%
CCC(C)C(NC(=O)OC(C)(C)C)C(=O)NCc1ccco1 (configuration not stated)	-0.2%	-8%	8%	0%	1.2%	10%	-4.1%
CCOC(=O)Cn1nc(Cc2ccccc2)c2ccccc2c1=O	-0.1%	2%	-3%	-6%	0.8%	19%	0.8%
Cc1c(CCOC(=O)C2C3CC4CC(C3)CC2C4)sc[n+]1CC(=O)c1ccc(Br)cc1 (configuration not stated)	-0.3%	31%	3%	3.2µM*	3.4%	1%	1.6%
O=C(/C=C/c1ccc(F)cc1)NCCC1=CCCCC1	0.3%	0%	2%	15%	-0.5%	1%	8.0%
CCCCCn1c(SCc2ccncc2)nc2cc(C(=O)NCc3ccco3)ccc2c1=O	0.3%	-2%	4%	4%	5.0%	5%	5.4%
CN(C)/C=C(\C#N)C(=O)c1cccnc1Oc1ccc(F)cc1F	0.1%	-15%	-7%	3%	0.4%	10%	-0.2%
CCCOc1ccc2oc(=O)c3c(c2c1)CCCN3C(=O)CN1CCCC(C(=O)OCC)C1 (configuration not stated)	-0.1%	-10%	5%	15%	0.8%	4%	-0.8%
CCCCn1ccnc1C(=O)c1ccc(S(=O)(=O)N(CCOC)CCOC)cc1	0.3%	10%	3%	-1%	0.7%	-7%	3.2%
S=C1NCCOCCOCCOCCN1	-0.3%	7%	2%	-9%	-0.9%	-4%	6.6%
O=C(Oc1cc2oc(=O)cc(-c3ccccc3)c2cc1Cl)C1CCCCC1	0.3%	8%	-4%	15%	4.3%	40%	0.9%
CCCOc1ccc(N2CC(C(=O)NC(C)C)CC2=O)cc1 (configuration not stated)	-0.1%	5%	-4%	0%	-1.0%	6%	-2.0%
CC(C)C(NS(=O)(=O)c1cccs1)C(=O)Nc1nc(C(C)(C)C)cs1 (configuration not stated)	-0.1%	-2%	0%	6%	-2.6%	-3%	4.0%
Cc1ccc(OCCCN(C)C)c(Br)c1	0.0%	9%	1%	13%	2.0%	2%	1.8%
Cc1ccc(-c2ccc(=O)n(CC(=O)NCCN(C)C)n2)cc1	-0.1%	15%	-3%	17%	0.1%	16%	1.5%
CCCC(O)(CCN1CCCCC1)c1ccc(OCC)cc1 (configuration not stated)	-0.1%	-11%	-3%	-1%	1.2%	8%	1.0%
Cc1cc(C)c2c(-n3cccc3)c(C(=O)NNS(=O)(=O)c3ccc(Cl)cc3)sc2n1	0.1%	-13%	3%	11%	42%	-2%	-2.4%
Cc1ccc(NC(=O)NNc2cccc(Cl)n2)cc1	0.0%	1%	0%	10%	-2.7%	-72%	3.1%
Cc1ccc(Oc2coc3cc(OC(=O)c4cccs4)ccc3c2=O)cc1	-2.3%	-4%	2%	11%	1.7%	9%	4.2%
CC1C/C(=N/O)C(C)CN1 (configuration not stated)	-0.2%	14%	0%	4%	-1.4%	-4%	2.0%
Cc1ccc(C(=O)N2CCN(c3ncccn3)CC2)o1	0.0%	6%	2%	-3%	-3.6%	0%	3.8%
Cc1nn(CC(=O)N2CCOCC2)c(C)c1[N+](=O)[O-]	0.0%	17%	-3%	5%	-1.2%	13%	0.0%
Cc1ccc(C(=O)CSc2ncnc3sc4c(c23)CCCC4)cc1	-0.1%	6%	-1%	8%	5.9%	-17%	1.5%
CC1(C)OC(=O)C(=CNn2cnc3ccccc3c2=O)C(=O)O1	-0.1%	-3%	0%	12%	3.3%	20%	6.6%
O=c1[nH]c(CSc2nnc(-c3ccccc3)n2C2CCCCC2)nc2ccccc12	0.0%	0%	12%	27%	1.4%	-13%	0.4%
CC(Sc1nc2ccccc2s1)C(=O)N1CCOCC1 (configuration not stated)	-0.2%	-17%	-1%	11%	-2.0%	-14%	3.5%
Cc1ccc(C)n1CCN1CCN(CC(=O)Nc2ccc(S(N)(=O)=O)cc2)CC1	0.0%	-15%	-1%	18%	-0.6%	-18%	-1.4%
Cc1ccc(/C=N/n2nnnc2N)cc1[N+](=O)[O-]	0.3%	18%	-6%	11%	13%	-1%	-4.5%
Cc1cnc(C(=O)OCC(=O)Nc2ccc(Cl)cc2)cn1	-0.1%	2%	0%	-6%	1.4%	7%	2.8%
O=C1COc2ccc(OCc3ccc(F)cc3)cc21	-0.1%	18%	1%	36%	-2.7%	-3%	3.8%
CCOC(=O)c1ccc(NC(=O)CSc2nc3c(c(=O)n2CC)SC(C)C3)cc1 (configuration not stated)	0.2%	5%	4%	8%	-3.1%	-1%	-3.0%
COc1ccc(N2C(=O)CCC(C(=O)N3CCC(C(N)=O)CC3)C2c2ccc(F)cc2)cc1 (configuration not stated)	0.0%	2%	5%	7%	0.9%	-6%	-4.1%
C=CCOC(=O)C1=C(C)NC(SC)=C(C#N)C1c1cccs1 (configuration not stated)	-0.1%	1%	4%	62%	-2.4%	-11%	-0.5%
COC(=O)c1ccc(COc2ccccc2/C=N/NS(=O)(=O)c2ccc(C)cc2)cc1	-0.1%	-3%	1%	20%	-4.1%	-11%	-0.1%
CC(C)CC(=O)Nc1ccccc1-c1nnn(CC(=O)N2CCc3ccccc3C2)n1	0.1%	16%	2%	35%	0.1%	0%	-2.4%
Cc1cc(C)c2c(-n3cccc3)c(C(=O)NNS(=O)(=O)c3ccc(Br)cc3)sc2n1	0.5%	-2%	3%	-12%	26%	20%	6.3%
CC(C)Cc1nc(N2CCN(C(=O)c3ccccc3)CC2)c(C#N)c2c1CCC2	-0.1%	25%	-1%	29%	-0.2%	-2%	-2.6%
COC(=O)c1sccc1-c1ccc(/C=N/OCc2c(Cl)cccc2Cl)o1	0.2%	0%	9%	18%	0.0%	16%	3.3%
(more compounds)
SMILES	GPR55 beta-arrestin	GPR35 arrestin U2OS	SIAH1 antagonists	GPR55 LPI antagonism	HIV fusion peptide	AID2073	KOR beta-arrestin
CN(C)S(=O)(=O)Oc1cccc(C(=O)Nc2ccc(Cl)c(Cl)c2)c1	-0.1%	4%	3%	4%	34%	5%	5.5%
COc1ccc(-n2c(N)c(C(=O)NCc3ccco3)sc2=S)cc1	-0.1%	29%	-1%	-2%	-3.9%	-18%	3.4%
Cc1ccnc(SCC(=O)Nc2sc3c(c2C#N)CCC(C(C)(C)C)C3)n1 (configuration not stated)	-0.1%	-9%	-3%	-5%	-2.0%	5%	-1.3%
Cc1cccc(NC(=S)NC(=O)c2cc(-c3ccccc3)nc3ccccc23)c1	-0.1%	13%	-1%	18%	-4.1%	-7%	2.0%
O=C(NC(Cc1c[nH]c2ccccc12)c1nnc2n1CCCCC2)c1ccc(Cl)cc1 (configuration not stated)	-0.1%	8%	0%	30%	-1.9%	-2%	1.4%
Cc1cccc(NC(=O)Cn2c(=O)n3nc(CCn4nc(C)cc4C)nc3c3ccccc32)c1	0.5%	1%	-2%	5%	1.0%	7%	-1.6%
O=C(Cn1ncc2c1-c1ccccc1OC2)N1CCc2ccccc21	0.6%	-2%	2%	0%	-0.6%	4%	0.2%
Cc1oc(-c2ccccc2)cc1C(=O)Nc1ccc2ccccc2c1	0.3%	9%	3%	-6%	0.4%	6%	3.6%
Cc1ccc(OCCn2c(CCNC(=O)C(C)C)nc3ccccc32)cc1	-0.1%	10%	0%	10%	0.3%	-8%	0.9%
Cc1ccc2nc(NC(=O)COC(=O)c3ccc(Br)o3)sc2c1	-0.1%	-3%	-7%	-3%	1.0%	-53%	5.4%
O=C(Oc1ccccc1)c1c(Cl)cccc1P(=O)(O)O	-0.1%	0%	-2%	-2%	0.2%	-8%	17%
COc1ccccc1C(=O)N/C(=C/c1ccccc1)C(=O)NC(CCSC)C(=O)O (configuration not stated)	0.3%	-7%	5%	15%	-1.3%	-1%	-1.4%

Screening data: PubChem, Sanford-Burnham Center for Chemical Genomics
